Screening results as filed in PubChem BioAssay.
Calb FLC: C. albicans growth inhibition with fluconazole, primary screen, CaCi-2 strain, Alamar Blue fluorescence. C. albicans CaCi-2 (fluconazole-resistant clinical isolate) + fluconazole, 48 h. growth inhibition, % (test concentration not listed). actives 0.57% (n = 300,000). AID 1979, 2009;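 active means most replicates above 75%; inconclusive means exactly half above 75%; inactive means most below 75%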;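 further: all wells also contain fluconazole at 8 µg/ml as a sub-toxic cotreatment; 0% = median of DMSO wells and 100% = median of geldanamycin control wells; wells of about 8 µL received 7.5 nL stock; the first replicate is given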
A1 inh: caspase 3/7 activation in MEF A1-2A-BIM cells, primary screen, A1 inhibitor project, cell-based, luminescence, HTS. caspase activation, % (test concentration not listed). AID 2462, 2010. actives 0.066% (n = 330,000). Caspase-Glo 3/7 luminescence, 3 h; percent of clofoctol response, vehicle zero;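 active means over half of replicate activation scores above 10%, or exactly half above 10 with the replicate mean above 10; inconclusive means replicate mean below 10 yet half the replicates above 10; inactive means over half of replicates below 10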;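 further: wells of about 30 µL received 50 nL stock; many hits fall short of the cut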
Beta cell apopt: inhibitors of cytokine-induced beta cell apoptosis, primary screen, luminescence. actives 0.8% (n = 300,000). INS-1E cytokine-induced death, ATP luminescence, 48 h; percent of positive-control rescue, neutral wells zero. protection from apoptosis, % (concentration not given with the values);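 active means all replicates at 75% or more, or half of them and the mean; inconclusive means half reach 75% but not the mean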;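 further: 0% = cytokine-treated negative control wells and 100% = positive control rescue; higher means more ATP so stronger rescue from cytokine killing; wells of about 40 µL received 100 nL stock; the first replicate is given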
rRNA inh HTS: reduced GFP signal of wild-type E. coli, primary screen, bacterial rRNA inhibitor project, GFP/RFP fluorescence, OD600, single point; actives 1.6% (n = 350,000); GFP signal change (wild-type ribosome), % (no concentration beside the values); E. coli WT GFP vs humanized-ribosome RFP mutants, 24 h; stronger effect = lower value; DMSO median 0, no signal -100;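 active means significant combined selectivity score with lowered wild-type GFP, culture density cut under 30%, mutant RFP and density less affected; inactive means any of these conditions unmet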; further: one replicate is shown; some compounds called inactive have numbers as strong as hits
AF4-AF9 inh: inhibitors of AF4 peptide binding to AF9, primary screen, biochemical, AlphaScreen, biotin-AF4 peptide, FLAG-AF9, single point; Protein AF-9 (Homo sapiens), P42568; inhibition, % at 10 µM; actives 0.47% (n = 350,000);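 active means every replicate reaching a set inhibition limit, whatever the replicate mean, cut at about 25% in these data; inconclusive means mean inhibition reaches that limit but some replicates miss it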;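 further: 0% = plate neutral control median and 100% = total signal loss; the record names both 10 and 1 µM as test concentration; the first replicate is given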
Target sequence (P42568 whole entry, looked up): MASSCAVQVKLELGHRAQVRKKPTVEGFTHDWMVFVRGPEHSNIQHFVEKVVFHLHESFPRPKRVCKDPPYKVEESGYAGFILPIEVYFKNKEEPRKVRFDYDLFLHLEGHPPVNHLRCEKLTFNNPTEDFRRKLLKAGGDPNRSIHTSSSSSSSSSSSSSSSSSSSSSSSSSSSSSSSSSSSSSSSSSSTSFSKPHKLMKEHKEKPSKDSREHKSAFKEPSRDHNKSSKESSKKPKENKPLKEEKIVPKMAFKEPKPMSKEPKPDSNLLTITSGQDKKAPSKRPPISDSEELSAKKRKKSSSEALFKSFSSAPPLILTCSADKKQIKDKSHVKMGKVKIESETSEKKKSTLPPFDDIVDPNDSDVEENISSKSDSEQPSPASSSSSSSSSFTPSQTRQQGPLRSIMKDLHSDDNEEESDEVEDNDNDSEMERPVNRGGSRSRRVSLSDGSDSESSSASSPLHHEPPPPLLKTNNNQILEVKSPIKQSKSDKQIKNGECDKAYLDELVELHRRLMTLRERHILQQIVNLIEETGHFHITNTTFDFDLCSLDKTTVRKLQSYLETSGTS
T cruzi repl: inhibitors of intracellular T. cruzi growth, primary screen, luminescence, NIH3T3 host cells; inhibition, % (test concentration not listed); actives 1.4% (n = 300,000); T. cruzi beta-gal in NIH3T3, 90 h;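 active means mean inhibition across valid replicates above about 55%, limit read from the data; inconclusive means mean below that limit but half or more replicates reach it; inactive means mean below it, under half of replicates reach it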;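 further: signal also drops with host cell toxicity which is not excluded here; 0% = plate median of DMSO wells and 100% = zero luminescence signal; higher percent means less beta-gal luminescence so fewer parasites; stock transfer was 50 nL into about 50 µL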
RanGTP-Impb inh: inhibitors of RanGTP-importin-beta interaction, primary screen, biochemical, FRET, CFP-Ran, YFP-importin-beta, homogeneous. cell-free CFP-Ran/YFP-importin-beta FRET ratio. inhibition, % (test concentration not listed). actives 1.1% (n = 300,000);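 active means most replicates above 15%; inconclusive means exactly half above 15%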;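 further: 0% = DMSO wells and 100% = Ran loaded with GDP instead of GTP; wells of about 40 µL received 100 nL stock; the first replicate is given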
Vif TR-FRET: inhibitors of Vif binding to APOBEC3G peptide, primary screen, biochemical, TR-FRET, GST-Vif 1-94, biotin-A3G peptide, dose response retest (AID 1117319); Virion infectivity factor (Human immunodeficiency virus type 1 group M subtype B (isolate …; TR-FRET GST-Vif / biotin-A3G peptide binding; higher % means a stronger effect; test concentration not given here; strong numbers were not always called active; actives 0.57% (n = 260,000); one-dose inhibition, %; IC50 in µM for titrated hits;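 active means above the screen mean plus three standard deviations and confirmed in dose response; inconclusive means results disagree or hit not tested in dose response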;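 further: Vif residues 1-94 fused to GST binding biotinylated APOBEC3G peptide 110-148; 0% = full assay without inhibitor and 100% = GST in place of GST-Vif; retest series ran down from 100 µM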
rRNA inh HTS OD600: recorded beside rRNA inh HTS, whose call it bears; OD600 change, %; measured here: OD600 growth;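 optical density of the mix in the first replicate; 0 = DMSO median and -100 = no signal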
rRNA inh HTS RFP: recorded beside rRNA inh HTS, whose call it bears; RFP signal change, %; measured here: RFP humanized mutant strains;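 first replicate; 0 = DMSO median and -100 = no signal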
Active calls of the source: *; u = inconclusive; x = no result given; & = joins results of further samples. An excerpt; count on the stated rates, not on these rows.

SMILES	Calb FLC	A1 inh	Beta cell apopt	rRNA inh HTS	rRNA inh HTS OD600	rRNA inh HTS RFP	AF4-AF9 inh	T cruzi repl	RanGTP-Impb inh	Vif TR-FRET
Cc1cc(C)c(S(C)(=O)=O)c(N(C)NC(=O)c2c(F)cccc2F)n1	-4	-0.2	-3	3	10	0.2	0.2	4	-3.6	-8%
O=C(COC(=O)CNC(=O)c1ccc(Cl)c([N+](=O)[O-])c1)NNC(=O)c1cccs1	-6	-0.3	x	5	-2	1.7	-2.1	-7	-2.5	9%
CC1(C)CC2CC(C)(CN2C(=O)c2ccc([N+](=O)[O-])cc2[N+](=O)[O-])C1 (stereo not given)	2	1.5	-3	15	5	0.1	3.4	97*	6.0	14%
O=C(CNC(=O)c1ccco1)Nc1ccc(Br)cc1	-6	0.4	-2	8	12	-1.0	1.4	1	-0.9	-4%
Cc1cc(CNC(=O)CC2C(=O)NCCN2Cc2ccccc2C(F)(F)F)nn1C (stereo not given)	-9	x	x	4	3	4.4	-13	-7	-0.7	u
CCOC(=O)C1CCN(Cc2cnc(Oc3ccc(OC)cc3)s2)CC1	-19	0.4	-2	x	x	x	x	-9	2.6	81µM*
O=C(COC(=O)c1nc(Cl)ccc1Cl)NCc1cccs1	-1	0.7	0	5	4	-2.7	-1.3	-5	-0.2	0%
CCCCn1c(N)c(N(CCOC)C(=O)COC(=O)COc2ccc(CC)cc2)c(=O)[nH]c1=O	10	0.1	-1	2	-3	-0.5	-2.0	-10	4.8	-3%
c1ccc2cc(-c3cc4ccccn4c3)ccc2c1	8	-1.2	22	-11	-2	2.8	7.4	51	-0.8	8%
CCCNC(=O)Nc1cc(S(=O)(=O)CC)ccc1O	-3	-0.4	-10	x	x	x	-2.6	-2	0.7	u
CCC(C)(C)NC(=O)CN(Cc1cccs1)C(=O)CNS(=O)(=O)c1ccc(C)cc1	-18	0.0	0	x	x	x	x	5	0.8	-2%
Cc1oc(-c2cccs2)nc1CN1CCN(C(C)C)C(CCO)C1 (stereo not given)	-23	-0.4	-1	10	0	-1.5	0.8	-6	-1.9	3%
c1ccc(C[C@H]2CNCCN2CCCCC2CCCCC2)cc1	-16	0.3	5	-54	-81	-36	19	1	6.7	x
O=C(Cn1cccc1)N1CCc2ccccc21	18	-0.2	-3	x	x	x	x	-17	3.4	5%
COc1ccccc1-c1cc(C(F)(F)F)nc(S(C)(=O)=O)n1	-7	-0.5	2	x	x	x	x	-60	3.4	1%
CCCCC(=O)NC(=S)Nc1c(C)cc(Br)cc1C	-1	0.3	0	5	13	2.8	-2.9	9	-2.2	u
Cc1ccc(C)c(N(C(=O)Cn2nnc3ccccc32)C(C(=O)NC(C)(C)C)c2ccsc2)c1 (stereo not given)	-6	0.5	-2	x	x	x	x	-10	u	1%
CC(C)CN(CC(C)C)C(=O)COc1ccccc1C(N)=O	2	-0.1	-3	4	17	5.0	-3.1	6	u	-1%
CC1(C)CC(=O)CC(=O)/C1=N\Nc1c(Cl)cc(Cl)cc1Cl	-10	0.7	-4	x	x	x	5.7	6	0.5	17%
CCCCN(C(=O)c1cccc(-n2cccc2)c1)c1c(N)n(Cc2ccccc2)c(=O)[nH]c1=O	-3	2.1	-5	7	9	-0.9	-0.2	-3	3.7	x
Cc1cc(C)c(NC(=O)Cn2c(=O)c3cccn3c3ccccc32)c(C)c1	2	0.0	1	11	11	1.8	0.5	22	-2.4	x
COc1ccccc1OCCSc1nnc(CNC(=O)c2ccco2)n1C	5	0.9	1	5	9	0.2	-0.5	-13	3.4	3%
COc1ccc(Cl)cc1NC(=O)CCN1CCOCC1	-5	0.6	5	10	-4	-2.6	4.1	-17	5.5	10%
Cc1ncoc1C(=O)Nc1ccccc1C(N)=O	-3	-1.1	2	x	x	x	x	0	-0.5	-1%
Cc1c(OCC(=O)Nc2cccnc2)ccc2c3c(c(=O)oc12)CCC3	-6	-0.3	6	4	5	-2.4	-2.4	-35	1.0	x
SMILES	Calb FLC	A1 inh	Beta cell apopt	rRNA inh HTS	rRNA inh HTS OD600	rRNA inh HTS RFP	AF4-AF9 inh	T cruzi repl	RanGTP-Impb inh	Vif TR-FRET
N=c1c(C(=O)NCC2CCCO2)cc2c(=O)n3ccccc3nc2n1Cc1ccc(Cl)cc1 (stereo not given)	-24	0.0	13	24	3	22	-23	35	180*	x
COCCNC(=O)/C(C#N)=C/c1ccc(OC(=O)c2cccs2)c(OC)c1	11	x	x	-3	-1	2.7	6.0	-8	0.6	13%
O=C(OCCCc1cc2ccccc2c(=O)o1)c1ccc2c(c1)OCO2	x	0.1	-7	-21	-24	-16	-2.2	x	x	x
Nc1cc(=O)[nH]c(SCC(=O)Nc2nnc(-c3ccccc3)s2)n1	-6	0.2	2	-10	-8	-2.9	-1.2	-7	-4.3	-1%
CCCc1nnc(NC(=O)CSc2ncn[nH]2)s1	-3	0.0	-5	x	x	x	x	-5	5.8	-4%
CCN(CC(=O)Nc1ccccc1OC)C(=O)COc1ccc2ccccc2c1	-1	0.3	-4	x	x	x	x	5	-3.1	22%
OCC(O)C1OC(Nc2ccc(Br)cc2)C(O)C1O (stereo not given)	-31	-0.5	-5	21	24	4.4	1.4	-7	1.3	x
CC(C)(C)NC(=O)C1CC(=O)OC12CCCCC2 (stereo not given)	-17	-0.5	-5	x	x	x	x	-29	2.8	1%
CC(=O)NC(CC(=O)Nc1nc(-c2ccc(N(C)S(C)(=O)=O)cc2)cs1)c1ccccc1 (stereo not given)	-3	2.2	0	x	x	x	-1.2	5	-0.4	2%
Cc1cc(C)cc(OCC(=O)OCC(=O)c2c(N)n(C)c(=O)n(C)c2=O)c1	-2	0.1	-8	x	x	x	x	-5	-6.8	1%
Cc1ccc(S(=O)(=O)N2CCOC2CNC(=O)C(=O)NCCCc2ccccc2)cc1 (stereo not given)	1	0.4	6	0	-6	0.2	-16	-5	0.8	x
CCCCN(Cc1cc2ccccc2[nH]c1=O)C(=O)c1ccccn1	4	0.8	2	x	x	x	x	-13	0.3	1%
O=C(NCCOC(=O)c1ccccc1)c1ccc([N+](=O)[O-])cc1	0	0.5	-6	3	5	-6.4	-1.2	-3	u	x
COc1ccc(CNC(=O)CCS(=O)(=O)c2ccc3c(c2)CCN3C(C)=O)cc1	1	-0.3	-6	3	1	-1.0	-0.8	23	0.5	x
CC(=N)C1=C(O)CC(c2ccccc2)CC1=O (stereo not given)	-1	-0.5	-4	10	14	-0.3	0.6	-5	-1.4	x
CCCc1cc(=O)[nH]c(SCC(=O)N2CCCC2=O)n1	2	-0.7	2	13	20	-3.4	7.9	-14	-4.0	2%
CC1(C)Cc2c(sc(NC(=O)C(=O)N3CCCCC3)c2C(N)=O)CO1	5	0.6	-6	3	7	-2.4	0.2	-1	-2.4	x
CCN(C[C@H]1N[C@@](Cc2ccccc2)(C(=O)OC)[C@H]2C(=O)N(C)C(=O)[C@@H]12)C(=O)NC(C)C	x	-0.7	-2	10	3	2.2	-4.8	x	x	4%
Cc1ccc(C(=O)NCC(=O)OCn2nnc3ccccc3c2=O)cc1	x	1.1	1	2	4	-0.1	2.9	x	x	1%
O=C(O)c1nn(CCOc2cccc(Cl)c2)c(=O)c2ccccc12	0	-0.5	-3	-18	-31	-14	-1.1	-7	-1.5	7%
CCOc1ccc(S(=O)(=O)Nc2cccc(C(=O)N3CCN(c4ccc(OC)cc4)CC3)c2)cc1	10	-0.2	-1	x	x	x	x	5	u	8%
CC(=O)Nc1ccc(OCC(O)Cn2c3ccccc3c3ccccc32)cc1 (stereo not given)	2	0.0	-1	x	x	x	x	32	-0.6	x
O=C(/C=C/c1ccc(Cl)cc1Cl)NCCSCc1ccccc1	50	u	-9	x	x	x	x	12	-1.0	-2%
N#Cc1ccccc1S(=O)(=O)N1CCN(c2ccc(S(=O)(=O)N3CCOCC3)cn2)CC1	-9	-0.3	-2	x	x	x	x	13	0.4	2%
O=C(O)CNC(=O)/C(=C\c1ccc2c(c1)OCO2)NC(=O)c1ccc(Br)cc1	11	0.4	x	7	7	-1.4	-2.3	-6	1.8	29%
SMILES	Calb FLC	A1 inh	Beta cell apopt	rRNA inh HTS	rRNA inh HTS OD600	rRNA inh HTS RFP	AF4-AF9 inh	T cruzi repl	RanGTP-Impb inh	Vif TR-FRET
O=C(O)CCn1c2ccccc2c2nc3ccccc3nc21	22	-1.4	x	-30	-27	-5.5	-5.4	3	-0.6	-4%
CCCc1cc(N2CCN(C(=O)c3ccco3)CC2)n2c(nc3ccccc32)c1C#N	3	-0.2	-4	x	x	x	x	7	31*	2%
CCc1c(C)[nH]c2c(C)cccc2c1=O	-8	0.0	2	x	x	x	x	1	-0.2	-5%
O=C(NC1CCCCC1)C(c1cccs1)N(C(=O)c1ccco1)c1ccc2c(c1)OCCO2 (stereo not given)	11	-1.0	3	x	x	x	x	18	-2.7	1%
COc1ccc(S(=O)(=O)NCC(=O)N(CC(=O)NCC2CCCO2)c2ccccc2C)cc1 (stereo not given)	-4	-0.5	-5	x	x	x	x	3	-0.6	0%&4%
Cc1ccccc1N/N=C/c1sc(=O)n(Cc2cccc(C(=O)O)c2)c1Cl	2	-0.8	-3	-9	-3	3.8	-21	-9	2.0	u
O=C1C(C2=NC(C(=O)O)C3C(=O)N(c4ccccc4)C(=O)C23)=C(O)c2ccccc21 (stereo not given)	u	0.5	-4	x	x	x	x	-2	3.2	-6%
Cc1cccc2nc(C(=O)Nc3cccc(C(=O)NC4CC4)c3)cn12	x	-6.5	6	-6	-2	-0.5	-1.0	x	x	74%
CSc1ccc(/C=C/C(=O)c2c(O)cc(C)oc2=O)cc1	-3	-0.4	-3	-2	2	1.2	3.4	11	-9.7	x
CCOC(=O)c1c(CC(C)C)csc1/N=C/C1=C(O)CCCC1=O	-10	0.2	x	-13	-9	22	2.3	5	0.1	6%
O=C(NCc1ccco1)/C(=C/c1ccc(F)cc1)NC(=O)c1ccccc1	2	0.8	-2	6	9	4.4	-1.7	-8	-2.0	x
C=CCn1c(-c2ccc(OC)cc2)nc2ccccc21	6	0.7	4	x	x	x	x	x	0.4	-4%
Cc1ccc(C(=O)NCC(=O)OCC(=O)Nc2cccc(S(=O)(=O)N3CCCC3)c2)cc1C	-10	-0.6	-8	-21*	-2.8*	-2.5*	-10.0	-9	5.1	19%
